N370S GC mod: inhibitors or activators of N370S glucocerebrosidase for Gaucher disease; Potency, µM (top dose mostly 59.4 µM), for inactives: at the top dose activity change, negative = inhibition, actives largely listed as inhibitors; 330,000 compounds, 0.092% hits; AID 2101; N370S GC spleen homogenate, 4MU-glucoside fluorescence; active = well fitted inhibition curve with a large enough effect;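 also: 0% = full enzyme activity and -100% = no enzyme basal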
* = called active by the depositor; & = joins results of further samples. Potency is read from the fitted curve at half-maximal effect. These rows are one share of the data; most or all hits stand in other tables.

compound	N370S GC mod
Cc1cc(C)c(S(=O)(=O)Nn2cnnc2)c(C)c1	-4.5%
Cc1[nH]c(C)c(S(=O)(=O)N(C)Cc2ccccc2)c1C(=O)N1CCCC1	-0.6%
Cc1ccc(C(C(=O)NCc2ccco2)N(CC2CCCO2)C(=O)Cn2nnc3ccccc32)cc1 (stereo not given)	-20.7%
O=C(O)CCC(=O)N1c2ccccc2NC2=C(C(=O)CC(c3ccc(F)cc3)C2)C1c1ccc([N+](=O)[O-])o1 (stereo not given)	3.2%
Cc1ccc(SCC(=O)N2CCCC2)cc1	-3.9%
COc1ccc(Nc2ncnc3ccccc23)c(OC)c1	3.2%
Cn1c(=NC(=O)CS(=O)(=O)c2ccccc2)sc2ccccc21	2.5%
CCC(=O)NCCCCCCNC(=O)CC	-2.9%
CCCCN(CCCC)CCNC(=O)c1cn(C)c2ccc(S(=O)(=O)N3CCCC3)cc2c1=O	-4.5%
S=c1[nH]nc(C2CC2)n1Cc1ccco1	-14.2%
O=C(NCc1ccc2c(c1)OCO2)c1ccc(CS(=O)(=O)c2cccc(C(F)(F)F)c2)o1	5.3%
CCCCCC1CC(=O)C=C(C)C1C(=O)OC (stereo not given)	3.1%
CS(=O)(=O)N(CCC#N)Cc1ccc(/C=C2\C(=O)Nc3ccccc32)o1	-10.8%
Cc1ccc(Oc2ccccc2NC(=O)C2=COCCO2)cc1	11.7%
O=C(CCCCCCN1C(=O)c2ccccc2C1=O)Nc1nccs1	6.4%
O=C(Oc1ccc2ccccc2c1)c1cncc(Br)c1	7.9%
CC1=Nn2c(nc(-c3ccccc3)c2-c2ccccc2)NC(=O)C1Br (stereo not given)	2.8%
O=C(c1cccs1)N1CCCc2ccccc21	3.3%
Cc1ccsc1C(=O)NN=C1CCCCCC1	-10.7%
CC12CCC(C(=O)Nc3nc4ccccc4s3)(OC1=O)C2(C)C (stereo not given)	-0.8%

Further results follow.
compound	N370S GC mod
CNS(=O)(=O)c1ccc(NC(=O)c2cnn3c(C(F)F)cc(-c4ccccc4)nc23)cc1	11.6%
O=C(CCCN1C(=O)/C(=C/c2cccc(Br)c2)SC1=S)N1CCOCC1	-1.8%
COc1ccc(COc2cc(-c3cccc(OC)c3)nc3ccc(NC(=O)c4ccccc4)cc23)cc1	3.3%&-8.4%
NC(=O)c1ncc(C(F)(F)F)cc1Oc1cccnc1	-4.7%
COc1cccc(C(=O)N=c2sc3cc(S(C)(=O)=O)ccc3n2C)c1	-3.1%
CCCn1c(C(C)NC(=O)c2ccccc2)nc2ccccc21 (stereo not given)	-17.9%
CC(=O)Nc1ccc(-n2nnnc2SCC(=O)NCc2cccs2)cc1	-1.3%
COc1ccc(/C=C2/NC(=O)N(CC(=O)Nc3cccc(C)c3)C2=O)cc1O	-14.2%
CCN1CCN(c2c(Cl)cccc2NC(=O)c2ccc3c(c2)OCCO3)CC1	6.6%
Cc1ccc[n+](CC(=O)N2CCCCC2)c1C	-18.7%
CC(C)C(NC(=O)/C(=C\c1ccco1)NC(=O)c1ccco1)C(=O)O (stereo not given)	-6.7%
O=C(CSc1ccc(Cl)cc1)OCc1nnc(-c2ccccc2)o1	-3.2%
CNC(=O)c1c(NC(=O)c2cccc(N3C(=O)CCC3=O)c2)sc2c1CCCC2	11.5%
Cc1noc(C)c1S(=O)(=O)N(CC(=O)Nc1ccc2c(c1)OCO2)c1ccc(C(C)C)cc1	3.1%
CC1CC(C)CN(C(=O)C2CCCN(S(=O)(=O)c3cccc4nonc34)C2)C1 (stereo not given)	-2.0%
COc1ccc(-n2c(C)c(C(C)=O)c(C(C)=O)c2C)cc1	4.8%
Cc1ccc(OCc2nnc(SCC(=O)N3CCOCC3)n2C)cc1	-5.5%
O=C(Nc1ccnn1C1CCN(Cc2cccc(OCCO)c2)CC1)C1CC1	-12.1%
Cc1ccc2c(COC(=O)C3=COCCO3)cc(=O)oc2c1	-3.7%
COc1cc(/C=C/C(=O)NCCn2c(C)cc3ccccc32)cc(OC)c1OC	-3.5%

Additional records:
compound	N370S GC mod
Cc1ccc(CNC(=O)N2CCN(c3ccc(C)cc3)CC2)cc1	-5.7%
O=C(COC(=O)c1cc(-c2ccccc2)nc2ccccc12)NCC1CCCO1 (stereo not given)	1.1%
COCCNC(=S)NC(=O)c1ccc(C(C)(C)C)cc1	7.1%
COc1ccc(S(=O)(=O)N2CCOCC2)cc1NC(=O)c1ccccc1C	2.7%
CCOC(=O)C1=C(CS(=O)(=O)c2ccc(C)cc2)NC(=O)NC1c1ccc(O)c(OC)c1 (stereo not given)	5.5%
CC(=O)c1c(C)n(-c2ccccc2)c2ccc(OCC(O)CN3CCOCC3)cc12 (stereo not given)	-9.1%
Cc1cc2cc(CN3C(=O)c4ccccc4C3=O)ccc2[nH]1	9.9%
O=C(Nc1ccccc1Cl)C1CCCN(S(=O)(=O)c2ccc(F)cc2)C1 (stereo not given)	-1.5%
N#CCSc1nc2ccccc2c2nc3ccccc3n12	-5.8%
COc1ccccc1NC(=O)Nc1ccncc1	3.8%
C=C(C)C(=O)Nc1nnc(-c2ccccc2C)s1	5.7%
COCCCN1CN(S(=O)(=O)c2ccc(Cl)cc2)c2nc3ccccc3nc21	8.6%
COc1ccc(CCN(Cc2nc3ccccc3c(=O)[nH]2)C(=O)c2ccco2)cc1	10.1%
CCCCCC(=O)N1CC2(CC(c3cccc(NC(=O)COc4ccc(Cl)cc4)c3)=NO2)C[C@@H]1C(N)=O (stereo not given in full)	5.2%
NC(=O)C1(N2CCCCC2)CCN(C(=O)c2ccccc2)CC1	-4.5%
CCCNS(=O)(=O)c1ccc(C(=O)NCC2CCCO2)cc1 (stereo not given)	1.5%
O=C(CCNC(=O)C1CCN(S(=O)(=O)c2ccccc2)CC1)NCc1cccc(C(F)(F)F)c1	-3.1%
Cc1nc(-c2nc(-c3c(C(=O)NN)noc3C)cs2)cs1	10.8%
O=C(CSc1nnnn1-c1cccc2c1CCCC2)N1CCCCC1	12.8%
O=C(NC1CCCCC1)C(=S)NCCc1ccccc1	-17.0%

(further entries)
compound	N370S GC mod
Cc1ccc(S(=O)(=O)CCC(=O)OC(C)C(=O)NC2CCCCC2C)cc1 (stereo not given)	-4.4%
O=C(O)c1sccc1Oc1ccc(F)cc1[N+](=O)[O-]	-34.9%
CCCc1nnc(NC(=O)CN2C(=O)C3C4C=CC(C4)C3C2=O)s1 (stereo not given)	3.3%
O=C(CN(CC1CCCO1)S(=O)(=O)c1ccc(S(=O)(=O)NC2CC2)cc1)Nc1ccccc1 (stereo not given)	-11.6%
CCC(C(=O)NC1CCCC1)n1nc(C)n2c(cc3occc32)c1=O (stereo not given)	-6.0%
O=C(COc1ccccc1)N/N=C/c1ccc([N+](=O)[O-])o1	-1.2%
O=C(CSCc1c(F)cccc1Cl)NNC(=S)NC1CCCCC1	-2.2%
O=C(CNC(=O)/C(=C/c1ccccc1)NC(=O)c1ccc(Br)cc1)OCc1ccccc1	9.5%
Cc1ccccc1NC(=O)Cc1nnc(SCC(=O)Nc2ccccc2)n1C	6.6%
CC(=O)NC(CC(=O)NNC(=O)C(C)Oc1ccccc1F)c1ccccc1 (stereo not given)	-1.8%
Cc1onc(-c2ccccc2Cl)c1C(=O)Nc1nc2c(s1)CCCC2	-9.6%
CCCCc1nc2cc(C(=O)N3CCCCC3CCO)ccc2o1 (stereo not given)	1.2%
O=S(=O)(Nc1cccc(-c2ccc3nncn3n2)c1)c1cccs1	0.5%
COc1ccc(CNC(=O)COC(=O)c2cc(-c3cccs3)nc3ccccc23)cc1OC	8.6%
Nc1ccc(-c2nc3ccc(-c4nc5ccc(N)cc5[nH]4)cc3[nH]2)cc1	-1.1%&-1.7%&7.7%
Cc1ccccc1-c1nc(CS(=O)(=O)CC(=O)N2CCc3ccccc3C2)c(C)o1	9.0%
Cc1cccc(CN2CCN(Cc3cccc4nonc34)CC2CCO)n1 (stereo not given)	1.8%
CCC(NC(=O)CCl)c1ccc(C)cc1 (stereo not given)	-1.4%
Cn1c(=O)c2c(nc(CN3CCN(c4ccccc4F)CC3)n2CCN2CCOCC2)n(C)c1=O	0.7%
COc1ccc(C(C)NC(=O)c2ccccc2Br)cc1OC (stereo not given)	3.2%

Other results follow:
| canonical_smiles | N370S GC mod |
| --- | --- |
| Cc1csc(SCC(=O)NCc2cccc(Cl)c2)n1 | 9.6% |
| O=C(Nc1ccc(N2CCCC2)c(Cl)c1)c1ccccc1[N+](=O)[O-] | -6.1% |
| O=C(NCCN1CCOCC1)c1cc(-c2ccc(Cl)c(Cl)c2)on1 | -12.0% |
| CCOC(=O)C(=Cc1ccccc1OC)C(=O)OCC | -2.9% |
| CCOC(=O)Cn1c(=O)oc2cc(S(=O)(=O)Nc3cc(Cl)ccc3OC)ccc21 | 1.7% |
| COc1ccc(CNS(=O)(=O)c2ccc(F)c(C(=O)Nc3ccc(OC)cc3)c2)cc1 | 6.8% |
| COc1cccc(NC(=O)Nc2cc(C(=O)NC(C)C)ccc2N2CC3CC(C2)c2cccc(=O)n2C3)c1 (stereo not given) | -9.2% |
| O=C(CCn1c(=O)oc2ccccc21)N1CCCCCC1 | 1.7% |
| COc1ccccc1-c1ccc(SCc2cccc(C)c2)nn1 | -0.1% |
| CN1CCc2c1nc1ccccc1c2N=C1CCCN1Cc1ccccc1 | 0.7% |
| COc1ccc(NC(=O)c2csc(Cc3ccccc3)n2)cc1 | -8.0% |
| CC(C)c1ccc(/C=N/NC(=O)C(=O)NCCCN2CCOCC2)cc1 | -3.5% |
| CCOP(=O)(OCC)c1nc(-c2ccc(Cl)cc2)oc1NCc1ccccc1 | 18.6% |
| CC(OC(=O)c1cccnc1)C(=O)NCc1ccc2c(c1)OCO2 (stereo not given) | 2.5% |
| Cc1nc(C(C)N(C)Cc2c(C(=O)N3CCCCC3)nc3c(C)cccn23)c(C)s1 (stereo not given) | -14.0% |
| COc1cc(C(C(=O)NC2CCCCC2)N(C(=O)c2cnccn2)c2ccccc2)cc(OC)c1OC (stereo not given) | -15.6% |
| NC(=O)CS(=O)(=O)c1nc2ccccc2n1Cc1ccccc1F | 4.3% |
| CCc1ccccc1Nc1nc2ccccc2n1C | -8.4% |
| COCc1cc(C)nc(SCC(=O)Nc2ccc3c(c2)n(C)c(=O)n3C)c1C#N | -17.6% |
| CCOC(=O)CSc1nnc(NC(=O)c2cccc([N+](=O)[O-])c2C)s1 | -2.8% |
| CCN1CCCC1CNS(=O)(=O)c1cccc(C(F)(F)F)c1 (stereo not given) | 2.0% |
| CC1CCCC(C)N1C(=C(Cl)Cl)C(=C1SCCS1)[N+](=O)[O-] (stereo not given) | 9.2% |
| COc1cc2c(cc1OC)C1Cc3ccc(OC)c(OC)c3C[N+]1([O-])CC2 (stereo not given) | 5.5% |
| O=C(O)COc1ccc2c(c1)CCCC2 | 1.9% |
| O=C(CNS(=O)(=O)c1ccccc1)Nc1cccc([N+](=O)[O-])c1 | -5.8% |

Among those listed so far, these have an NH in an aromatic ring.
| canonical_smiles | N370S GC mod |
| --- | --- |
| Cc1[nH]c(C)c(S(=O)(=O)N(C)Cc2ccccc2)c1C(=O)N1CCCC1 | -0.6% |
| S=c1[nH]nc(C2CC2)n1Cc1ccco1 | -14.2% |
| Cc1cc2cc(CN3C(=O)c4ccccc4C3=O)ccc2[nH]1 | 9.9% |
| COc1ccc(CCN(Cc2nc3ccccc3c(=O)[nH]2)C(=O)c2ccco2)cc1 | 10.1% |
| Nc1ccc(-c2nc3ccc(-c4nc5ccc(N)cc5[nH]4)cc3[nH]2)cc1 | -1.1%&-1.7%&7.7% |

The list goes on:
| canonical_smiles | N370S GC mod |
| --- | --- |
| C=CCSc1nc(N)cc(=O)[nH]1 | 13.9% |
| CCC1(C)Cc2sc3c(=O)[nH]c(=S)[nH]c3c2CO1 (stereo not given) | -4.5% |
| N#Cc1cc(Oc2cccnc2)c(Oc2cccnc2)cc1C#N | 4.1% |
| C=CCN(c1ccccc1OC)S(=O)(=O)c1ccc(Cl)c(C(=O)Nc2ccc(N3CCOCC3)cc2)c1 | -2.2% |
| CCc1ccc2c(c1)cc(C)c1nnc(SCC(=O)Nc3cc(OC)c(OC)cc3C(=O)O)n12 | -2.7% |
| NS(=O)(=O)c1ccc(CCNC(=O)c2ccc3ccccc3n2)cc1 | 0.6% |
| COc1ccc(N(C)S(=O)(=O)c2cccc(C(=O)Nc3cc(OC)ccc3OC)c2)cc1 | -3.1% |
| COC(=O)c1ccc(NC(=O)C(C)N2C(=O)c3ccccc3C2=O)cc1 (stereo not given) | 0.5% |
| CCCNC(=O)Nc1ccccc1C(=O)Nc1ccc(OC)cc1 | 12.9% |
| COc1ccccc1Nc1nc(N)nc(CSc2ncccn2)n1 | 5.4% |
| COc1ccc(Cn2c(-c3ccc(OC)cc3)nc3ccccc32)cc1 | 19.7% |
| CN(C)CCN(C(=O)c1ccc2c(c1)CCCC2)c1nc2c(F)cccc2s1 | -6.4% |
| CCn1cc(C2=NC(C)(C)CO2)c2ccccc21 | -1.3% |
| COc1ccc(CNC(=O)CSc2nnc(NC(=O)C3CC3)s2)cc1 | -21.8% |
| Cc1ccc(-n2ccnc(SCC(=O)NC3CCCC3)c2=O)cc1F | 4.7% |
| CC(C)C(NC(=S)Nc1ccccc1)C(=O)O (stereo not given) | 7.4% |
| CN(C)c1nc(Nc2ccc(Cl)cc2)nc(OCC#N)n1 | 0.3% |
| COc1ccc(NS(=O)(=O)c2cc(NC(=O)c3cccs3)ccc2N2CCOCC2)cc1 | 5.6% |
| O=S(=O)(CCc1nc2ccccc2o1)c1ccc(Cl)cc1 | -23.4% |
| Cc1cccc(NS(=O)(=O)c2ccc3c(c2)NC(=O)CC(=O)N3)c1 | -23.2% |
| CC(C)(O)C#Cc1ccc(C(=O)NCCc2ccc(S(N)(=O)=O)cc2)cc1 | 14.0% |

Structures above that contain a COOH group:
| canonical_smiles | N370S GC mod |
| --- | --- |
| O=C(O)CCC(=O)N1c2ccccc2NC2=C(C(=O)CC(c3ccc(F)cc3)C2)C1c1ccc([N+](=O)[O-])o1 (stereo not given) | 3.2% |
| CC(C)C(NC(=O)/C(=C\c1ccco1)NC(=O)c1ccco1)C(=O)O (stereo not given) | -6.7% |
| O=C(O)c1sccc1Oc1ccc(F)cc1[N+](=O)[O-] | -34.9% |
| O=C(O)COc1ccc2c(c1)CCCC2 | 1.9% |
| CCc1ccc2c(c1)cc(C)c1nnc(SCC(=O)Nc3cc(OC)c(OC)cc3C(=O)O)n12 | -2.7% |
| CC(C)C(NC(=S)Nc1ccccc1)C(=O)O (stereo not given) | 7.4% |

Source: PubChem BioAssay
